Source: PubChem (National Center for Advancing Translational Sciences (NCATS))
D2 agonist = Beta-Arrestin HTS for Positive Allosteric Modulators of the Human D2 Dopamine Receptor: Agonists; D(2) dopamine receptor (Homo sapiens), P14416; DiscoveRx PathHunter D2 beta-arrestin, luminescence, 90 min; 100% = 57 uM dopamine signal; activation, % (test concentration not listed); 0.084% of 360,000 active; in the data active = activation above about 40%; inconclusive = about 15% to 40%; inactive = below about 15%; further: compound concentration not given in the record; the text of the record calls up to 30% inactive
Target sequence (P14416 whole entry, looked up): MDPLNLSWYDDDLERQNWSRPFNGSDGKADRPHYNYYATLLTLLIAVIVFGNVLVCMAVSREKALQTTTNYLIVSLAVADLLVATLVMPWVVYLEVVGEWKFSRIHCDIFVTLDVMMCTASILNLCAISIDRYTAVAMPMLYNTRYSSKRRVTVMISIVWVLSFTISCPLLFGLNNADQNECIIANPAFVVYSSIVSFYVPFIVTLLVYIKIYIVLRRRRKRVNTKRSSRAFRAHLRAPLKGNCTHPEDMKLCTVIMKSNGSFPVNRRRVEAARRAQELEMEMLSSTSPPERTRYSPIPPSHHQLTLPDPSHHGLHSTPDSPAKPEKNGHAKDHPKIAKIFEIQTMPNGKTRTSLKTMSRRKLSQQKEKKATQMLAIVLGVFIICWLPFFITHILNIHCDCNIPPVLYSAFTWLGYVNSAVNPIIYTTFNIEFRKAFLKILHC
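DiscoveRx PathHunter D2 beta-arrestin cells (2,100/well) attached overnight, then compound-stimulated 90 min at 37 C in HBSS/10 mM HEPES/0.1% Tween-20 buffer; beta-galactosidase complementation read by luminescence after 1 h at ambient temperature. Dopamine 57 uM final (EC100) as control.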
ClpP mod = qHTS Assay for Activators of ClpP. purified B. subtilis ClpP, FRET peptide cleavage, 20 min. Potency, µM (titrated, usually from 57.5 µM), without a hit: top-dose activity change, negative = active. 1.9% of 340,000 active; active = well fitted falling curve with a large enough effect; inconclusive = small, poorly fitted or top-dose-only effect; inactive = no such curve, though single readings can be large or run the other way; further: potency means the concentration at half of the fitted maximal effect; the source files actives as falling curves though it sought activators and does not explain the sign; nearly all actives have a fitted effect of over 65% in size; many hits overshoot -100%
Target sequence (P80244 whole entry, looked up): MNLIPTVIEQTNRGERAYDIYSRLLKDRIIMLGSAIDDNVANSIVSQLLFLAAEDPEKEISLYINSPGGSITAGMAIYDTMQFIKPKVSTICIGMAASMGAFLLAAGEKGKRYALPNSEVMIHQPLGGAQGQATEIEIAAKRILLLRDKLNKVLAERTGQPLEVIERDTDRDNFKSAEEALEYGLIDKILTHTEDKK
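FRET quenching reversal measured ClpP activation: 10 microg/mL B. subtilis ClpP at pH 8 with the FRET-FV decapeptide, read at 430 nm after 320 nm excitation. The 20-min minus 0-min signal was scaled between DMSO/no-enzyme wells and ADEP (5.8 microM final).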
gsp antag = qHTS for Antagonists of gsp, the Etiologic Mutation Responsible for Fibrous Dysplasia/McCune-Albright Syndrome: qHTS | AID 624288, 2012 | 0.4% of 340,000 active | gsp-mutant cells, cAMP HTRF, 30 min; control for the full effect not named in the record | Potency, µM (highest dose often 76.9 µM), without a hit: at the top dose activity change, negative = inhibition, usual class: inhibitors; active = falling curve of any shape with a large fitted effect; inconclusive = falling curve, mostly with a smaller effect; inactive = flat or rising curve; cell line not stated here;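 further: intracellular cAMP measured with PDE inhibitor Ro 20-1724 present during compound exposure; potency means the concentration at half of the fitted maximal effect; on the % scale 0 is the no-effect control and ±100 the full control effect; nearly all actives have a fitted effect of over 65% in size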
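HTRF cAMP measurement after 30 min RT detection following 30 min, 37C compound treatment alongside […] (added as 300 uM solution) in G418-selected cells seeded at 2000/well and grown 16–24 h.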
Menin MLL FP FL = qHTS Assay for Inhibitors Targeting the Menin-MLL Interaction in MLL Related Leukemias: Competition With Fluorescein Labeled MLL-derived Peptide | 290,000 tested, under 10 active | AID 1766, 2009 | Fluorescence polarization, fluorescein-MLL peptide displacement from menin | FP activity change, % at 61.4 µM; inconclusive = falling polarisation curve, or a change in total fluorescence; inactive = total fluorescence flat and polarisation flat or rising; no compound was filed as active; the % refers to the polarisation; negative = inhibition;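 further: % of control where 0% means no effect; inhibitors lower the polarisation; unlabelled MLL peptide was the positive control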
Sfp inh = qHTS Assay for Inhibitors of Bacillus subtilis Sfp phosphopantetheinyl transferase (PPTase). Potency, µM, for the others: max response, negative = inhibition, actives largely listed as inhibitors. 3.5% of 310,000 active. AID 1490, 2009. Biochemical Sfp PPTase activity, qHTS. 4'-phosphopantetheinyl transferase ffp (Bacillus subtilis), Q9F4F7; active means well fitted inhibition curve with a large enough effect; inconclusive means small, poorly fitted or top-dose-only effect, or another doubt; inactive means no such curve, though single readings can be large or run the other way;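 further: the enzyme is Sfp with the accession as filed and its product quenches rhodamine fluorescence; potency means the concentration at half of the fitted maximal effect; 0% = enzyme reaction without inhibitor and -100% = no enzyme wells; top concentration of the series not given in the record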
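With Hepes-Na pH 7.6 buffer containing 10 mM MgCl2, Sfp (15 nM) modified BHQ-2-YbbR (12.5 uM) using rhodamine-CoA (5 uM). Two reads 30 minutes apart at 525/598 nm yielded each well's rate.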
gsp ag = qHTS for Agonist of gsp, the Etiologic Mutation Responsible for Fibrous Dysplasia/McCune-Albright Syndrome: qHTS | gsp mutant cells, cAMP HTRF, 30 min; control for the full effect not named in the record | Potency, µM (titrated, usually from 76.9 µM), for the others: at the top dose activation (cAMP increase), usual class: activators | 0.13% of 340,000 active | AID 624287, 2012; active = well fitted activation curve with a large enough effect; inconclusive = small, poorly fitted or top-dose-only effect, or another doubt; inactive = no such curve, though single readings can be large or run the other way; cell line not stated here;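 further: phosphodiesterase inhibitor Ro 20-1724 added with compounds to block cAMP breakdown; potency means the concentration at half of the fitted maximal effect; nearly all actives have a fitted effect of over 60% in size; about a fifth of the inactives were tested at one dose only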
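Cells stably selected in G418 were plated at 2000/well, grown 16-24 hr, then given compounds in DMSO with the PDE inhibitor […] (300 uM solution added) for 30 min at 37C; cAMP was read by HTRF.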
PINK1 modulator = A Quantitative High throughput Screen to Identify Chemical Modulators of PINK1 Expression; PINK1 immunofluorescence, high-content cytometry, 24 h; 0.2% of 410,000 active; Potency, µM (doses to about 76.6 µM), without a hit: at the top dose activation (PINK1 increase), actives largely listed as activators; AID 624263, 2012; active = well fitted activation curve with a large enough effect; inconclusive = small, poorly fitted or top-dose-only effect; inactive = flat fitted curve, though single readings scatter; cell line not stated here;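 further: potency means the concentration at half of the fitted maximal effect; % of control where 0% means no effect; nearly all actives have a fitted effect of over 65% in size; a mitochondrial uncoupler was the plate control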
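Readout is PINK1 immunofluorescence, quantified alongside mitochondrial, cell and nuclear markers by laser-scanning microplate cytometry. Cells from a stable line were exposed to compound titrations (5 concentrations) for 24 hours, with CCCP controls.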
An asterisk follows results filed as active; u = inconclusive; x = not tested or not shown; [ ] = dose if it differs, or a comment.

SMILES	D2 agonist	ClpP mod	gsp antag	Menin MLL FP FL	Sfp inh	gsp ag	PINK1 modulator
CCN(Cc1ccncc1)C(=S)Nc1c(C)cccc1C	0.2	1.0%	8.3%	7.8	-22.5%	5.3%[15.4 µM]	0.7%
Cc1ccc2c(c1)[C@H]1[C@H](CO2)[C@H](c2ccccc2)[C@]2(C)C(=O)N(C)CC(=O)N12	-3.4	-8.7%	7.8%	x	x	x	-0.8%
CNc1nc(Sc2ccccc2)cc(C(F)(F)F)n1	-1.9	-11.8%	3.0%	0.1	11.0%	13.9%	-2.5%
COc1ccc(/C=N/N=C2/CC(C)(C)Cc3n[nH]c(=O)cc32)cc1	-1.6	x	-0.5%	u	u	-16.3%	-0.7%
Cc1ccc(F)cc1S(=O)(=O)Nc1cccc(C(=O)N2CCCC(C(N)=O)C2)c1 (stereo not drawn)	9.5	0.0%	2.6%	x	x	-3.0%	0.5%
CC(=O)Nc1cccc(/C(C)=N/NS(=O)(=O)c2ccc(C)cc2)c1	1.1	x	16.6%	-7.0	-3.9%	-0.9%[15.4 µM]	-1.1%
CCCN(CCC)c1cc(Cl)nc(N)n1	0.1	x	2.5%	-3.3	4.8%	1.9%	-0.3%
CCOC(=O)c1c(NC(=O)Cn2cnc3scc(-c4ccc(C)cc4)c3c2=O)sc(C)c1C	-0.7	-10.4%	-4.5%	9.6	-25.6%	-23.0%	1.6%
CCCN1CCN(CCCNC(=O)Cn2nc(-c3ccc(C)cc3)ccc2=O)CC1	-1.9	u	-0.3%	4.7	5.6%	2.0%	3.9%[38.3 µM]
COC(=O)C1=C(C(=O)OC)[C@@H]2N(C)c3ccc(OC)cc3[C@@]23C[C@@H](C(=O)OC)N(C(=O)NC2CCCCC2)C3=N1	-3.5	-3.4%	-9.2%	x	x	x	1.6%
Cn1c(=O)c2c(nc(NCCO)n2CCc2ccccc2)n(C)c1=O	-2.6	-15.3%	4.4%	1.4	8.9%	27.1%	x
CCCN1CCN(C(=S)Nc2ccc(SC(F)F)cc2)CC1	4.3	0.0%	8.3%	-0.4	10.4%	18.9%	0.0%
Cc1cccc(C(=O)NNS(=O)(=O)c2ccccc2)c1O	6.5	x	x	2.3	1.2%	-1.9%[15.4 µM]	1.7%
COc1cccc2c1OCC(C(=O)NCc1ccc(Cl)cc1Cl)=C2	0.8	-2.7%	u	3.6	u	-2.4%	-3.2%
Cc1oc(-c2ccccc2F)nc1CN1CCC(C(=O)NCc2cccnc2)CC1	1.1	-3.5%	10.0%	-2.6	5.7%	-12.0%	x
Cc1ccc(C)c(NC(=O)Cn2nc(-c3ccccc3)nc2-c2ccccc2)c1	-2.8	2.8%	-20.2%	-3.4	4.4%	-64.9%[inhibitor]	2.1%
CCCCN1CC(C)(C)[C@H](CC(=O)Nc2ccc(Br)cc2)C1=O	2.6	2.0%	x	x	x	-86.7%	0.6%
COc1ccc(/C=N/Nc2cc(N3CCCC3)nc(N3CCCC3)n2)cc1	-3.5	x	-25.8%	4.6	50.1µM*	u	u
CCOc1ccc(-c2nn(-c3ccccc3)cc2/C=C2\SC(=S)N(C3CCS(=O)(=O)C3)C2=O)cc1 (stereo not drawn)	-4.3	0.1%	4.4%	u	12.8%	3.0%	1.2%
Cc1cc(NS(=O)(=O)c2ccccc2)cc(Cl)c1O	u	3.2%	5.7%	1.1	79.4µM*	-1.9%	4.7%
Cc1ccccc1CN1CCN(C(=O)c2cc(-c3ccncc3)nc3ccccc23)CC1	-3.2	-0.9%	-22.9%	x	u	15.6%	-2.8%
Fc1ccc(-n2cc(CNCCc3ccccn3)c(-c3ccccc3Cl)n2)cc1	4.2	1.8%	7.8%	-0.8	5.3%	2.7%[15.4 µM]	9.5%
CN1C(=O)/C(=N\OC(=O)c2cccc3ccccc23)c2ccccc21	-2.9	80.9%	10.2%	4.2	-18.6%	1.5%	-0.3%[38.3 µM]
CCc1nnc(NC(=O)COc2ccc([N+](=O)[O-])cc2)s1	-1.1	x	-1.6%	0.9	22.8%	17.6%	-0.7%
NN=C(c1cccc([N+](=O)[O-])c1)c1cccc([N+](=O)[O-])c1	1.9	x	-9.0%	x	x	-2.5%[15.4 µM]	1.5%
O=C(Cn1cnc2c(OCc3ccccc3)ncnc21)NCCCc1ccccc1	-3.5	-1.3%	3.6%	x	x	x	0.0%
O=C(COc1ncnc2ccc(Br)cc12)NCc1ccc2c(c1)OCO2	-2.5	-0.8%	4.5%	0.8	-8.1%	-4.1%	-1.6%
O=C(O)/C=C/c1cnc2ccccc2c1	-0.8	x	-8.8%	-1.8	3.0%	-16.5%[15.4 µM]	-0.8%
COc1ccc(CCNC(=O)COC(=O)c2cc(S(=O)(=O)N3CCCC3)ccc2O)cc1	7.9	3.8%	u	x	x	-15.1%	1.0%
COc1ccc(-n2c(Cc3cccn3C)nnc2SCC(=O)Nc2ccc3c(c2)OCCO3)cc1	2.5	1.3%	-19.1%	-3.2	1.5%	-3.6%	1.6%
NS(=O)(=O)c1ccc(NC(=O)Cc2cccs2)cc1	5.3	0.5%	-2.9%	12.4	10.6%	7.2%[15.4 µM]	0.3%
CCn1c(CCCOc2ccc(Cl)cc2Cl)n[nH]c1=S	4.4	x	-9.7%	2.3	-15.1%	-21.8%	-1.8%
COCCNC(=O)CNC(=S)N(CCCN1CCOCC1)Cc1cccs1	-2.9	x	-11.5%	-6.7	20.4%	4.7%[15.4 µM]	2.4%
CCCCN(C(=O)CCC(=O)Nc1cc(C)on1)C(C(=O)NC1CCCC1)c1ccc(OC)cc1 (stereo not drawn)	-0.4	x	8.4%	-2.2	14.2%	1.6%[15.4 µM]	1.8%
COC(=O)c1ccc(COC(=O)Cc2n[nH]c(=O)c3ccccc23)cc1	-3.2	-7.8%	-5.4%	-1.3	3.6%	8.5%[15.4 µM]	-1.7%
CC1CCc2c(sc(NC(=O)COC(=O)c3ccc(O)cc3)c2C#N)C1 (stereo not drawn)	10.5	x	-7.5%	12.6	u	-4.5%[15.4 µM]	0.4%
COc1ccc(Nc2nc(C)cc(C)c2C(N)=O)cc1	-2.2	-0.6%	4.3%	3.7	20.7%	-43.5%[inhibitor]	3.3%
COC(=O)COc1ccc(S(=O)(=O)NCc2ccccn2)cc1	6.3	x	13.7%	-4.6	2.4%	-4.1%	2.0%
O=C(NC1CC1)c1cc(-c2ccco2)nc2ccccc12	1.5	x	-14.2%	0.1	44.7µM*	-0.5%[15.4 µM]	0.3%
Cc1ccc(-c2csc3nc(-c4ccncc4)[nH]c(=O)c23)cc1	-1.8	-21.3%	u	9.5	-4.1%	-26.2%	u
CS(=O)(=O)Nc1ccc(C(=O)NCc2ccc3c(c2)OCO3)cc1	-0.2	-4.3%	8.0%	2.0	u	-34.6%[inhibitor]	u
COc1cc(OC)cc(C(=O)NC(=S)N2CCN(c3ccc(C(F)(F)F)cc3[N+](=O)[O-])CC2)c1	-3.2	2.3%	-15.1%	-0.3	20.3%	-9.5%	0.7%
O=C(NCCc1ccccc1)c1cccc(N2CCCC2=O)c1	-2.7	-2.8%	2.0%	x	7.3%	8.4%	1.1%
CN(CCOc1ccc(Cl)cc1)C(=O)c1cc(-c2ccco2)nc2ccccc12	1.4	28.2µM*	u	x	x	-3.1%	8.1%
CSc1nc(-c2ccccc2)nc(SC)c1C(C)=O	0.3	-0.1%	-13.2%	2.6	7.8%	3.7%	6.1%[38.3 µM]
CCN(c1ccccc1)S(=O)(=O)c1ccc(C(=O)Nc2c(C)n(C)n(-c3ccccc3)c2=O)cc1	3.2	x	-0.5%	x	x	6.8%	-0.9%
Cc1nc2ncnn2c(N2CCN(C(=O)c3cccc(F)c3)CC2)c1C	1.7	-0.8%	-1.5%	-1.0	15.3%	24.5%	-2.0%
COc1ccc(N(C(=O)c2ccc(S(=O)(=O)N3CCOCC3)cc2)C2C=CS(=O)(=O)C2)cc1 (stereo not drawn)	-3.4	-2.7%	10.3%	1.8	4.9%	2.2%	6.4%[38.3 µM]
Cc1noc(C)c1C(c1ccccc1)c1ccccc1	1.9	-2.7%	-9.1%	1.7	-0.4%	-23.6%	-2.4%[38.3 µM]
CCC(=O)c1ccc2c(c1)OCCO2	-0.1	-8.6%	-0.1%	-0.8	11.3%	18.2%	-0.1%
O=C(NC1CCCCC1)c1ccc2c(c1)OCCO2	2.1	x	16.1%	4.4	12.9%	15.1%	0.8%
CCc1noc(C)c1C(=O)N1CCCSC1=Nc1ccccc1OC	-5.9	-1.0%	-6.2%	x	x	12.4%	1.0%
CSCCC(NC(=O)c1ccccc1)C(=O)NCCc1ccccc1 (stereo not drawn)	3.2	x	11.9%	3.1	-5.1%	0.1%	1.4%
COc1ccc(Cl)cc1NC(=O)CCCNC(=O)c1ccc(Cl)cc1	-4.7	0.5%	6.9%	-2.8	8.3%	-3.3%	3.5%
Cc1ncc(CO)c(CO)c1O	5.1	4.1%	2.5%	2.0[24.8 µM]	8.9%	x	3.2%
Cc1ccc(S(=O)(=O)N2CCC(C)CC2)cc1[N+](=O)[O-]	-4.9	-3.4%	-12.4%	2.0	16.0%	-3.9%[15.4 µM]	-1.4%
CC(C)(C)C(=O)Nc1ccc(C(=O)Nc2cccnc2)cc1	0.0	1.8%	-3.9%	3.7	22.9%	-26.6%	x
CC(=O)OCC=C1CCC2C3CC(C)C4=CC(=O)CCC4(C)C3C(O)CC12C (stereo not drawn)	4.0	x	-27.3%	x	x	-31.6%[inhibitor]	u
CCNC(=S)Nc1ccc2c(c1)c(=O)n(C)n2CC=C(C)C	4.5	u	x	x	x	x	1.6%
O=C(CSc1ncnc2c1oc1ccccc12)NCc1ccc(F)cc1	1.6	3.6%	29.3%	-0.8	3.8%	u	4.9%
